High-throughput results deposited in PubChem BioAssay by National Center for Advancing Translational Sciences (NCATS).
Rango complex inh – inhibitors of Rango-importin beta complex formation; AID 540263; Potency, µM (series often up to 92.2 µM), inactives show at the top dose inhibition of complex formation; Rango CFP/YFP FRET sensor + importin beta, 45 min; 340,000 compounds, 0.031% hits; active = rising FRET ratio curve, often small or poorly fitted; inconclusive = mostly compound fluorescence or quenching in the first reads; inactive = flat curves in all reads;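 note: potency is the fitted concentration of half-maximal effect; 0% = DMSO wells and 100% = buffer wells lacking importin beta; nearly all actives have a fitted effect of over 15% in size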
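FRET biosensor (snurportin 1 IBB flanked by EYFP and cerulean), 50 nM, with compound 5 min, then 0.125 microM importin beta in PBS, 1 mM DTT, 0.02% Tween-20, 0.1% BSA. CFP/YFP ratio read after 45 min at room temperature; pre-read flags interference.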
Rango dissoc inh – inhibitors of RanGTP-induced Rango-importin beta complex dissociation | O95149+P62826 | Biochemical FRET Rango-importin beta, RanGTP-induced dissociation | Potency, µM (doses to about 46.1 µM), for the others: at the highest dose activity change, negative = inhibition | 340,000 compounds, 0.071% hits | AID 540253; active means falling FRET ratio curve, often poorly fitted, with flat reads before Ran was added; inconclusive means other falling curves, or compound fluorescence or quenching; inactive means flat or rising ratio curve;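 note: potency is the fitted concentration of half-maximal effect; % of control where 0% means no effect; nearly all actives have a fitted effect of over 45% in size; -100% = wells without RanGTP and RCC1; the record marks most hits as doubtful in a second field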
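Recombinant Rango FRET biosensor (EYFP–snurportin 1 IBB–cerulean CFP10) at 0.1 uM premixed with 0.25 uM importin beta in PBS, 1 mM DTT, 0.02% Tween-20, 0.1% BSA. Compound added 5 min; RanGTP-RCC1 (0.6 uM Ran, 2 mM GTP, 0.2 uM RCC1) then triggers release, read at 45 min.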
miR-21 FLuc – miR-21 reporter, rising signal | HeLa miR-21 FLuc reporter, luciferase, 48 h | Potency, µM (highest dose often 38.3 µM), without a hit: at the highest dose reporter change, positive = more light | 340,000 tested, under 10 active | AID 2288; active = well fitted rising curve with a large enough effect; inconclusive = small, poorly fitted or top-dose-only effect; inactive = no such curve, though single readings can be large or run the other way;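 note: % of control where 0% means no effect; miR-21 action dims this reporter so a rising signal means less miR-21 action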
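Luminescence from a firefly luciferase reporter carrying a miR-21 binding site downstream, stably expressed under a CMV promoter in HeLa cells that make miR-21 endogenously, reports miRNA modulation after 48 h compound exposure up to approximately 40uM final.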
GLA inh pH 4.5 – inhibitors of human alpha-galactosidase A at pH 4.5. purified enzyme, 4-MU-alpha-Gal fluorescence, pH 4.5. activity change, negative = inhibition, % at 105 µM. 230,000 tested, under 10 active; inconclusive = small, poorly fitted or top-dose-only inhibition, or a rising curve; inactive = flat fitted curve, though single readings scatter; no compound was filed as active;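 note: 0% = full activity with enzyme and -100% = basal without enzyme; dose as in the result columns while the protocol names 77 µM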
Target sequence (P06280 whole entry, looked up): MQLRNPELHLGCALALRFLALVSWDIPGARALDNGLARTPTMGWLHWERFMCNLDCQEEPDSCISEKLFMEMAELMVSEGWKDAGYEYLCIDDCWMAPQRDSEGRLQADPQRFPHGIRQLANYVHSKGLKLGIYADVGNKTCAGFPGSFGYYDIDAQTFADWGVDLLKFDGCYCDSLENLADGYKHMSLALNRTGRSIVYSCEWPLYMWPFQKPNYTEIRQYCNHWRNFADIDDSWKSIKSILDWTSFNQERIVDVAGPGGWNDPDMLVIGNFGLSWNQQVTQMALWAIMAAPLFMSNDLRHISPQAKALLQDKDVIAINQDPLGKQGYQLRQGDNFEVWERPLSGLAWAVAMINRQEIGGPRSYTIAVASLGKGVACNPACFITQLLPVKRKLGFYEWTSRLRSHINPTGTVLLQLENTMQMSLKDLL
* hit, by the source's call; ? = inconclusive; / = not tested or not shown.

Rango dissoc inh,miR-21 FLuc,Rango complex inh,GLA inh pH 4.5,mol
-21%,-3%,1.7%,-5,CCOC(=O)c1sc(=S)sc1SCc1cccc(C(F)(F)F)c1
11%,-2%,0.3%,/,CCOc1ccc(S(=O)(=O)NC2CCCC2)cc1C
11%,0%,0.3%,/,COc1ccc(NC(=O)CCCC(=O)OCC(=O)c2cccc(OC)c2)cc1
15%,-14%,1.4%,1,CSc1nc(SCC(=O)O)c2c3c(sc2n1)COC(C)(C)C3
8%,-26%,-0.4%,0,O=C(O)CC/C(=C\c1ccc(N2CCOCC2)c([N+](=O)[O-])c1)c1nc2ccccc2s1
-1%,0%,-0.9%,/,CC(C(=O)NC(C)(C)C)N(C(=O)CS(=O)CC(=O)Nc1ccc(F)cc1)C1CCCC1 (stereo not given)
-10%,-13%,-1.3%,-15,Cc1cc(NS(=O)(=O)c2ccc(NC(=O)CCCOc3ccc(Cl)cc3)cc2)no1
-14%,-4%,2.3%,-7,COc1cc(CCC(=O)Nc2nnc(-c3cccnc3)s2)cc(OC)c1OC
9%,-7%,0.0%,/,O=C(Nc1cccc(C(=O)Nc2ccc(F)cc2F)c1)c1ccccc1
0%,1%,-1.7%,-13,CCC(C)(C)NC(=O)C1CCN(c2nc(OC)nc(OC)n2)CC1
-19%,11%,-7.6%,-4,CC1(C)CC(=O)C2=C(C1)c1c(ccc3ncccc13)NC2c1cccs1 (stereo not given)
3%,-65%,2.2%,5,O=C(Cc1ccc(Cl)cc1)c1ccc(O)cc1
15%,-8%,?,-8,COc1ccccc1N(C)S(=O)(=O)c1ccc(Cl)c(C(=O)NC2=NCCS2)c1
-16%,-31%,?,-6,O=C(O)c1ccc(-n2c(O)c(C=C3N=c4ccccc4=N3)sc2=S)cc1
-9%,-1%,0.6%,-11,O=C(c1ccc(Cl)c(S(=O)(=O)N2CCOCC2)c1)N1CCN(Cc2ccccc2)CC1
-12%,-3%,-1.0%,-22,CC(C)c1cc(C(=O)N2CCCC(C(=O)c3ccc4ccccc4c3)C2)on1 (stereo not given)
-10%,-12%,-3.6%,8,Cn1c(-c2ccc(F)cc2)cnc1NCc1ccc(F)cc1
17%,-3%,0.1%,3,COc1ccccc1Cc1noc(C(C)(C)NC(=O)c2ccccc2)n1
11%,-10%,-1.8%,/,CC(C)Oc1cccc(C(=O)Nc2ncn[nH]2)c1
7%,4%,6.5%,0,CC(NC(=O)CSc1ccccc1C(=O)O)C1CC2CCC1C2 (stereo not given)
-3%,8%,0.6%,/,COc1cccc(/C=C2\SC(=S)N(CCC(=O)NCCc3ccc(O)cc3)C2=O)c1
0%,-11%,1.5%,-5,CC(=NCC1CCNCC1)C1=C(O)CC(C)(C)CC1=O
28%,-1%,?,-5,NS(=O)(=O)c1ccc(Nc2ccc([N+](=O)[O-])c3nonc23)cc1
5%,-2%,2.6%,4,COc1ccc(NC(=O)c2[nH]c(C)c(C(C)=O)c2C)cc1S(=O)(=O)N1CCOCC1
-4%,/,5.6%,/,CCOC(=O)c1ccc(-c2c(-c3ccccc3OC)oc3ccccc23)cc1F
10%,-48%,-0.6%,8,Cc1ccccc1NC(=O)CSc1nc2ccccc2o1
6%,/,-4.6%,/,CCOC(=O)C1=C(COC(=O)COc2ccccc2C=O)NC(=O)NC1C (stereo not given)
-4%,-13%,-6.5%,/,CCN(CC)C(=O)COc1ccc2c3c(c(=O)oc2c1C)CCCC3
9%,-9%,7.3%,-2,Cc1nc2ccccc2cc1C(=O)N/N=C/c1cccs1
-8%,-39%,-5.4%,/,Cc1c(C(=O)N(C)c2ccc(Cl)cc2)cnn1-c1ccccc1

Complete entries, quoted from the list. Screens in order: Rango dissoc inh, miR-21 FLuc, Rango complex inh, GLA inh pH 4.5
CC(C)c1cc(C(=O)N2CCCC(C(=O)c3ccc4ccccc4c3)C2)on1 (stereo not given) across the screens: -12%, -3%, -1.0%, -22
CCOC(=O)C1=C(COC(=O)COc2ccccc2C=O)NC(=O)NC1C (stereo not given) across the screens: 6%, /, -4.6%, /
COc1ccc(NC(=O)CCCC(=O)OCC(=O)c2cccc(OC)c2)cc1 across the screens: 11%, 0%, 0.3%, /
Cn1c(-c2ccc(F)cc2)cnc1NCc1ccc(F)cc1 across the screens: -10%, -12%, -3.6%, 8

Remaining list, next part
Rango dissoc inh,miR-21 FLuc,Rango complex inh,GLA inh pH 4.5,mol
-9%,0%,-0.9%,-2,COc1ccccc1/C=C(/C#N)C(=O)O
23%,-3%,-0.1%,/,O=C(Cc1ccc([N+](=O)[O-])cc1)NNC(=O)c1cccs1
4%,-10%,0.6%,3,O=C(CSc1nnc(-c2ccc(F)cc2)c2ccccc12)Nc1ccccc1Cl
-6%,-8%,-0.5%,-5,O=C(Cn1nc(Cc2ccncc2)c2ccccc2c1=O)N1CCc2ccccc2C1
27%,/,-0.7%,/,COCCN(C(=O)COC(=O)c1cc(C)oc1C)c1c(N)n(Cc2ccccc2)c(=O)[nH]c1=O
-14%,-2%,0.3%,-5,CC(C)NC(=O)CSc1nnc(COc2ccccc2Cl)o1
47%,-3%,2.5%,/,CC(Oc1cccc(Cl)c1)C(=O)N1CCCN(C)CC1 (stereo not given)
10%,8%,-0.8%,2,O=C(N/N=C\c1ccccn1)C1c2ccccc2Oc2ccccc21
-9%,-1%,-3.5%,-12,O=C(CC(c1ccccc1)(c1ccccc1)c1ccccc1)N[C@@H](Cc1ccccc1)C(=O)O
19%,1%,9.3%,-4,Cc1cc(C)cc(N(C(C)C(=O)N2CCOCC2)S(C)(=O)=O)c1 (stereo not given)
6%,2%,-2.9%,/,CCc1nc2nc(C)c(NS(=O)(=O)c3cccs3)c(=O)n2[nH]1
-14%,/,2.7%,/,O=S(=O)(/N=S1\CC=CCN1S(=O)(=O)c1ccccc1)c1ccccc1 (stereo not given)
-7%,-1%,4.3%,1,O=C(Cn1ncc2ccccc21)N1CCN(c2cccc(C(F)(F)F)c2)CC1
-4%,0%,3.4%,-10,CC(OC(=O)CCC(=O)c1cccs1)C(=O)Nc1ccc(Cl)cn1 (stereo not given)
0%,6%,-0.3%,-1,O=C(COC(=O)CNC(=O)c1ccc(Cl)cc1)Nc1ncc(C(F)(F)F)cc1Cl
?,/,-2.1%,/,COCCN(C(=O)COC(=O)CCc1ccccc1OC)c1c(N)n(Cc2ccccc2)c(=O)[nH]c1=O
1%,-1%,0.5%,5,Cc1nonc1OCC(C)(COc1nonc1C)NC(=O)c1ccccc1
26%,-2%,-0.6%,/,O=C(Nn1cnnc1)c1ccc(F)cc1
-16%,/,-2.0%,/,COc1ccccc1NC(=O)COc1cccc2c1CCNC2=O
7%,5%,4.1%,-5,CCn1nc(C(C)C(=O)O)c2ccccc2c1=O (stereo not given)
?,-4%,0.6%,3,CCOc1ncccc1C(=O)OCC(=O)Nc1ccc(C)c(S(=O)(=O)N2CCOCC2)c1
20%,-41%,9.9%,/,O=C(N/N=C/c1ccc(Cl)cc1Cl)c1ccc2nc[nH]c2c1
-2%,/,2.1%,/,COc1ccc(NS(=O)(=O)c2cccc(C(=O)NNC(=O)c3ccc(C)o3)c2)cc1
-9%,/,0.5%,/,CC(C)C[C@@H](CN)NC(=O)c1nc[nH]c1C(=O)N[C@@H](C)C(=O)CNC[C@H](CC(C)C)NC(=O)c1nc[nH]c1C(=O)N[C@@H](Cc1ccccc1)C(=O)O
2%,-1%,?,/,CC(NC(=O)C1CCN(C(=O)[C@@H]2Cc3ccccc3CN2)CC1)c1ccccc1 (stereo not given in full)
20%,/,-4.1%,/,Cn1c(CCC(=O)Nc2ccc(F)cc2)nc2cc(S(=O)(=O)N3CCOCC3)ccc21
7%,-3%,-3.0%,/,COc1ccc(-n2ncc(C(=O)NC3CC3)c2C2CCN(C(=O)OC(C)(C)C)CC2)cc1
-6%,-78%,-3.6%,3,Cc1ccc(Nc2ncccc2C(N)=O)cc1
-24%,-2%,-3.1%,/,CSCC[C@H](NC(=O)COc1cc2c(c3oc(=O)c(C)c(C)c13)CCC(C)(C)O2)C(=O)O
-12%,-6%,-7.0%,6,COCCCNC(=S)NNC(=O)c1ccoc1C
12%,29%,1.3%,/,CC(=O)N1c2ccc(S(=O)(=O)N3CCC(C(=O)N4CCN(c5cc(Cl)ccc5C)CC4)CC3)cc2CC1C (stereo not given)
-19%,-31%,-0.3%,6,O=C(COc1ccccc1N1C(=O)c2ccccc2C1=O)c1ccc(Cl)cc1
16%,-49%,2.7%,6,Cc1nc2ccc(NC(=O)Cc3ccccc3F)cc2s1
-7%,21%,0.4%,2,COc1ccc(NC(=O)c2cccnc2N2CCCC2)cc1
-4%,14%,-2.2%,1,C/C(CC(=O)Nc1ccc(Cl)c(C(F)(F)F)c1)=N\NC(=O)c1ccccc1O
-12%,3%,0.4%,/,CCN1CCN(CCCNC(=O)CNC(=O)c2nn(-c3ccc(OC)cc3)c(=O)c3ccccc23)CC1
57%,-8%,0.8%,5,CC(=O)N1N=C2c3ccccc3CCC2C1c1cccs1 (stereo not given)
3%,/,-0.4%,/,O=C1Nc2ccccc2C1=Nc1ccc2[nH]c3ccccc3c2c1
12%,-4%,0.6%,3,CN(C)c1cc2c(c(N(C)C)c1)C(=O)c1ccccc1C2=O
2%,-2%,9.9%,1,CC(C(=O)N1CCOCC1)N1c2cccc3cccc(c23)S1(=O)=O (stereo not given)
-18%,2%,-2.7%,-23,Brc1ccc(-c2cn3c(n2)CCc2ccc4cccnc4c2-3)cc1
3%,1%,1.8%,/,CN(C(=O)c1cccs1)C1(C)CCS(=O)(=O)C1 (stereo not given)
11%,-7%,-2.5%,/,CCc1ccc(N(CC(=O)NC2CCCC2)C(=O)CCC(=O)Nc2cc(C)on2)cc1
6%,2%,0.1%,-2,COC(=O)C1(C)CN(S(=O)(=O)c2ccc(C)cc2)c2cc(OC)ccc2C1=O (stereo not given)
-2%,/,-0.4%,/,O=C(C[n+]1cccc(C(=O)N/N=C/c2cccc([N+](=O)[O-])c2)c1)c1ccccc1
-20%,-12%,-2.3%,5,CCCCS(=O)(=O)Nc1ccc(C)cn1
-3%,3%,0.2%,-9,COC(=O)C(O)(CC(=O)Nc1ccc(OC(F)(F)F)cc1)C(F)(F)F (stereo not given)
11%,-2%,4.9%,8,Cc1cc(Nc2ccccc2)n(-c2ccc(C(=O)O)cc2)n1
7%,1%,1.2%,/,CCN(CC)CCNC(=O)c1ccc(NC(=O)CC(NC(=O)c2ccccc2Cl)c2ccccc2)cc1 (stereo not given)
-3%,-1%,4.8%,/,CC(C)C[C@@H](NC(=O)C1CCC(CNC(=O)[C@H](Cc2ccccc2)NC(=O)OC(C)(C)C)CC1)C(=O)O (stereo not given in full)
3%,-10%,0.1%,-2,CCSc1nnc(NC(=O)CSc2ncccn2)s1
3%,-11%,3.5%,-16,CC1CCCC(NC(=O)CSc2nnnn2C)C1C (stereo not given)
0%,-3%,-1.3%,/,Cc1cc(C)c(S(=O)(=O)N2CCOC2CNC(=O)C(=O)NCCCN2CCCC2=O)c(C)c1 (stereo not given)
-12%,-56%,0.4%,-1,CCCCCc1ccc(-c2ccc(C(=O)O)cc2)nc1
?,-2%,5.2%,/,COc1ccc(Cl)cc1NC(=O)CN(C)CC(=O)Nc1ccc(S(N)(=O)=O)cc1
-10%,/,5.3%,/,O=S(=O)(Nc1ccc(-c2ccc3nncn3n2)cc1)c1cccc(F)c1
-27%,1%,1.2%,1,O=C(c1ccc(F)cc1)N1CCN(C2CC3CCC2C3)CC1 (stereo not given)
-6%,-1%,?,-3,Cc1cc(=O)[nH]c(SCC(=O)Nc2ccc(S(N)(=O)=O)cc2)n1
-6%,5%,-1.5%,-9,CCc1ccc(S(=O)(=O)NCc2cn3c(C)csc3n2)s1

Random excerpt: 2 entries already listed, in no set order.
Rango dissoc inh,miR-21 FLuc,Rango complex inh,GLA inh pH 4.5,mol
3%,1%,1.8%,/,CN(C(=O)c1cccs1)C1(C)CCS(=O)(=O)C1 (stereo not given)
-18%,2%,-2.7%,-23,Brc1ccc(-c2cn3c(n2)CCc2ccc4cccnc4c2-3)cc1

This is a subset; count on the stated rates, not on these rows.
